Source: PubChem (National Center for Advancing Translational Sciences (NCATS))
PK Bst: modulators of Bacillus stearothermophilus pyruvate kinase | partly purified Bacillus stearothermophilus pyruvate kinase, luminescence ATP production; ribose 5-phosphate activator present at AC10 | Potency, µM | 51,000 compounds, 1.2% hits | AID 361; in the data active means potency below about 11 µM; inconclusive means mostly about 12 µM to 25 µM; inactive means weaker than that;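 the screen sought inhibitors and activators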;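 further: potency means the concentration at half of the fitted maximal effect; scaled between full activation by ribose 5 phosphate and full inhibition by luteolin; about four in five hits inhibit and the cells do not say which; series up to 57 µM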
TsaE inh: inhibitors of E. coli YjeE (TsaE) | purified YjeE, fluorescence polarisation of a bound ADP probe | AID 605 | Potency, µM | 71,000 compounds, 0.05% hits; active = well fitted falling curve; inconclusive = weaker or top-dose-only fall, or a rising curve; inactive = flat or poorly fitted curve;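 further: top concentration of the series not given in the record; excess ADP was the control for the full effect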
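Purified YjeE (10 uM) with BODIPY Texas Red-labeled ADP probe (2 uM); compounds pin-transferred, 15 min at room temperature. Binding inhibition read as decreased fluorescence polarization; ADP titration as control.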
* = called active by the depositor; i = inactive; · = not tested or not shown. Not all compounds are listed (hit frequency here may not be typical).

> CN(C)C(=O)Oc1cc(OC(=O)N(C)C)cc([C@@H](O)CNC(C)(C)C)c1
  PK Bst = ·
  TsaE inh = i

> Cc1cccnc1-n1c(-c2ccco2)nc2ccccc2c1=O
  PK Bst = ·
  TsaE inh = i

> CC1CCN2c3nc4ccccn4c(=O)c3CC3(C(=O)N(C)C(=O)N(C)C3=O)C2C1 (configuration not stated)
  PK Bst = >57
  TsaE inh = i

> NNC(N)=O
  PK Bst = ·
  TsaE inh = i

> Cc1ccc(S(=O)(=O)O[C@H]2CN3CCC2CC3)cc1
  PK Bst = ·
  TsaE inh = i

> Cc1ccc([N+](=O)[O-])cc1
  PK Bst = ·
  TsaE inh = i

> Clc1cc(I)cc(Cl)c1NC1=NCCN1
  PK Bst = ·
  TsaE inh = i

> Cc1ccc2c(c1)CC1(CN2C)C(=O)NC(=O)N(c2cccc(C)c2C)C1=O (configuration not stated)
  PK Bst = >57
  TsaE inh = i

> CCOC(=O)C1=C(N)OC2=C(C(=O)CCC2)C12C(=O)Nc1ccccc12 (configuration not stated)
  PK Bst = ·
  TsaE inh = i

> CCCOC(=O)COc1cc(C)cc2oc(=O)c3c(c12)CCC3
  PK Bst = ·
  TsaE inh = i

> COc1ccccc1N1CCN(Cc2c(F)cccc2F)CC1
  PK Bst = ·
  TsaE inh = i

> Clc1ccc(COC(Cn2ccnc2)c2ccc(Cl)cc2Cl)c(Cl)c1 (configuration not stated)
  PK Bst = >26
  TsaE inh = i

> NC(=O)CSP(=O)(c1ccccc1)c1ccccc1
  PK Bst = ·
  TsaE inh = i

> C=Cn1ccnc1P(=S)(c1c(C)nn(-c2ccccc2)c1C)c1nccn1C=C
  PK Bst = >57
  TsaE inh = i

> CCN(CC)CCCN=Cc1c(O)n(CCc2ccc(OC)c(OC)c2)c(=O)[nH]c1=O
  PK Bst = >57
  TsaE inh = i

> CC(CCc1ccccc1)NC(C)C(O)c1ccc(O)cc1 (configuration not stated)
  PK Bst = >26
  TsaE inh = ·

> CC12CCC(=O)C=C1CCC1C2CCC2(C)C(O)CCC12 (configuration not stated)
  PK Bst = ·
  TsaE inh = i

> [CH3][Hg][Cl]
  PK Bst = ·
  TsaE inh = i

> ClC(Cl)=C(Cl)C(Cl)=C(Cl)Cl
  PK Bst = ·
  TsaE inh = i

> N#CC(O)c1ccccc1 (configuration not stated)
  PK Bst = ·
  TsaE inh = i

Reformatted with two lines to a compound: seven of the compounds above.
Screens in order – PK Bst	TsaE inh
[CH3][Hg][Cl]
→ ·	i
Cc1cccnc1-n1c(-c2ccco2)nc2ccccc2c1=O
→ ·	i
CN(C)C(=O)Oc1cc(OC(=O)N(C)C)cc([C@@H](O)CNC(C)(C)C)c1
→ ·	i
N#CC(O)c1ccccc1 (configuration not stated)
→ ·	i
CCN(CC)CCCN=Cc1c(O)n(CCc2ccc(OC)c(OC)c2)c(=O)[nH]c1=O
→ >57	i
Cc1ccc2c(c1)CC1(CN2C)C(=O)NC(=O)N(c2cccc(C)c2C)C1=O (configuration not stated)
→ >57	i
NC(=O)CSP(=O)(c1ccccc1)c1ccccc1
→ ·	i
